Screens (PubChem BioAssay)
GALR2 ag: GALR2 receptor agonists, primary screen, cell-based | AID 803, 2007 | Galanin receptor type 2 (Homo sapiens), O43603 | GALR2-expressing cells, agonist activation read-out | activation, %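 (tested at 5 µM)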 | hit rate 0.48% among 140,000;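 active means above mean plus 3 SD of all compounds, about 5% in these data, not always enough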;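 further: 0% = vehicle buffer wells and 100% = reference agonist at full effect; tested in CHO reporter cells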
RGS16-Gao: modulators of RGS16 binding to Galphao, primary screen, biochemical, human proteins, multiplexed bead flow cytometry | bead-based flow cytometry RGS16-Galphao binding, fluorescence; actives lie on both sides | binding response (% of control), % at 10 µM | hit rate 0.38% among 220,000 | Regulator of G-protein signaling 16 (Homo sapiens) + Guanine nucleotide-binding protein …;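 active means below 25% or above 175%, edge rows of some plates excepted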;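 further: Galphao activated by GDP with aluminum fluoride before binding; 100% = wells without compound and 0% = beads without RGS; some results beyond the cut were filed as inactive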
PKD1 kinase inh: inhibitors of human PKD1 kinase, biochemical, fluorescence polarization; Serine/threonine-protein kinase D1 (Homo sapiens), Q15139; PKD1 kinase fluorescence polarization assay; inhibition, %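 (about 10 µM by stock and volumes)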; hit rate 0.056% among 200,000; AID 797, 2007;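 active means inhibition of 50% or more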;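 further: controls were vehicle for no effect and a reference inhibitor for full effect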
Target sequence (Q15139 whole entry, looked up): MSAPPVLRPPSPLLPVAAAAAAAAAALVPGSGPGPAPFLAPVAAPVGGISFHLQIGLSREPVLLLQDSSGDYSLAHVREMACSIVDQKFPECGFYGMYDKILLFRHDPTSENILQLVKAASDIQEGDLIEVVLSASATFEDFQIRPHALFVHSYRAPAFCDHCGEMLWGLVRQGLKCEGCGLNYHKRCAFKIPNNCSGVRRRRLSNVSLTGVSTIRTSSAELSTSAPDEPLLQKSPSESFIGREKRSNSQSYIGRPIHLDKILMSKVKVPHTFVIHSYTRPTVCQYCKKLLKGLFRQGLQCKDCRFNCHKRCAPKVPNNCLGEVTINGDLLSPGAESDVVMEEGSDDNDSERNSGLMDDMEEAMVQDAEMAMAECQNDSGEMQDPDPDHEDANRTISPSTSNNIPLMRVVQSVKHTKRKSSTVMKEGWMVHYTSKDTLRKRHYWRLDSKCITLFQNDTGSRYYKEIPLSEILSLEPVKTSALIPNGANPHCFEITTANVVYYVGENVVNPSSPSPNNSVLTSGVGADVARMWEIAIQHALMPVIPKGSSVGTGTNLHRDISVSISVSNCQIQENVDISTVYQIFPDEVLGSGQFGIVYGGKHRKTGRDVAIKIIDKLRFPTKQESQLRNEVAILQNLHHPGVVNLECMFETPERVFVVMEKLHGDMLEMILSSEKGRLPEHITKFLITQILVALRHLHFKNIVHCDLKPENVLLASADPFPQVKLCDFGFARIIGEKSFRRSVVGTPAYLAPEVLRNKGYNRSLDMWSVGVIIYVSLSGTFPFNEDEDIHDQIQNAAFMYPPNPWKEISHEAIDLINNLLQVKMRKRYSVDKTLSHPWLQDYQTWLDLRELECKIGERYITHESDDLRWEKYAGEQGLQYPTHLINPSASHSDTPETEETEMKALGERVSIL
HSV augment: enhancers of HSV replication in host cells, fold increase, host cell viability; HSV replication augmentation in cells; maximum fold increase; hit rate 0.005% among 220,000; AID 1956, 2009;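 active means peak rise of 1.5-fold or more in the series; tested in PC3 cells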;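 further: first round at 10 µM; read as green reporter fluorescence; hits show the peak of a series up to 25 µM; 1 = signal of infected wells without compound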
Insulin prom inh: inhibitors of insulin promoter-driven GFP, primary screen, imaging, TRM-6 cells (human fetal islet line), eGFP reporter, cell count | inhibition, % at 2 µM | AID 1273, 2008 | hit rate 0.9% among 130,000 | reporter expression induced with tamoxifen;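 active means inhibition above the mean plus 3 SD, with well images judged a real hit on visual review, cut at about 60% in these data, passing the limit was not always enough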
Insulin prom inh cell count: also measured in Insulin prom inh; calls as there; normalized cell count, %; measured here: cell count, toxicity; reference of the scale not given here;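 cells exposed to compound for 48 h; stained nuclei by imaging scaled within each plate; lower means fewer cells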
HSV augment primary fold: second read-out of HSV augment, no call of its own (marks repeat the call); fold increase; compound at 10 µM; measured here: primary screen fold increase 10 uM; tested in PC3 cells;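 GFP signal in the first replicate; 1 = infected wells without compound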
An asterisk follows results filed as active; i = inactive; . = no result given; [ ] = dose if it differs, or a comment.

SMILES | GALR2 ag | RGS16-Gao | PKD1 kinase inh | HSV augment | HSV augment primary fold | Insulin prom inh | Insulin prom inh cell count
Cc1cccc(NC(=O)c2nc[nH]c2C(=O)NCC(=O)OCc2ccccc2)c1 | . | 110 | . | i | 0.93 | . | .
CC(C)NCc1cc(Br)ccc1OCc1ccccc1 | . | 99 | -2 | i | 0.9 | . | .
Cc1nnc(-c2cccc(Br)c2)c2cn(-c3cccc(Br)c3)nc12 | -2.0 | 102 | -9 | i | 0.91 | . | .
O=C(NCC1CCCO1)c1c(O)c2ccccc2[nH]c1=O (configuration not stated) | -2.1 | 101 | -16 | i | 0.87 | -14 | 153
O=C(c1nc2ccccn2c1CN1CCC(Cc2ccccc2)CC1)N1CCCC1 | . | 117 | -3 | i | 0.96 | . | .
COc1ccc(C(=O)NC(=S)NNC(=O)c2c(-c3ccccc3)noc2C)cc1OC | . | 101 | . | i | 1 | . | .
Cc1ccc(C(=O)NC(=S)Nc2ccc(NC(=O)c3cccc(Cl)c3)cc2)cc1 | 10* | 101 | -2 | i | 0.82 | . | .
COc1ccc2c3c(c(=O)oc2c1OCC(=O)O)CCCC3 | -0.4 | 143 | -3 | i | 1.1 | 36 | 109
CC(=O)N1CCN(c2nc(C)nc3sc4c(c23)CCC(C)C4)CC1 (configuration not stated) | 0.2 | 98 | -5 | i | 1 | -29 | 171
CCOc1cc(/C=N/NC(=O)c2ccc(CN3CCOCC3)cc2)ccc1OC | . | 105 | -3 | i | 0.91 | . | .
Cn1c(=O)c2ncn(CC(=O)N/N=C/C=C/c3ccccc3)c2n(C)c1=O | . | 102 | 0 | i | 0.88 | -21 | 114
COC(=O)c1ccc(N2C(=O)C3CC=CC(C)C3C2=O)cc1 (configuration not stated) | . | 107 | 2 | i | 1.1 | 60 | 94
Cc1ccc(N=CC2=C(O)CC(c3cccc(Cl)c3)CC2=O)cc1 (configuration not stated) | -1.2 | 100 | 4 | i | 0.92 | -20 | 106
Cc1nnc(SCC(=O)N(Cc2ccccc2)C(C)(C)C)[nH]c1=O | . | 81 | 6 | i | 1.1 | 33 | 69
C=CCOC(=O)C1C(=O)CC(C)(O)C(C(=O)OCC=C)C1c1ccc(N(C)C)cc1 (configuration not stated) | . | 105 | 3 | i | 1 | 15 | 98
Cc1cc(C)n(-c2nc(C(=O)O)cs2)n1 | . | 99 | 0 | i | 0.99 | . | .
COc1ccccc1/C=C/C(=O)c1ccccc1 | . | 96 | . | i | 0.71 | . | .
COc1ccccc1NC(=O)/C=C/C(=O)O | . | 98 | -8 | i | 0.99 | . | .
CC(NC(=O)CCCOc1ccc(Cl)cc1)c1ccccc1 (configuration not stated) | -0.3 | 113 | 0 | i | 0.97 | 36 | 75
CN(C)c1ccc(C(c2nnnn2CCOC(=O)Nc2ccc(Cl)cc2)N2CCOCC2)cc1 (configuration not stated) | 1.4 | 106 | -1 | i | 0.82 | . | .
Cc1ccc(NC(=O)/C=C/c2ccc([N+](=O)[O-])s2)cc1 | 3.2 | 109 | -7 | i | 1.2 | -270 | 28
Cc1ccc(Sc2ncccc2COC(=O)Nc2c(C)cccc2C)cc1 | -2.2 | 91 | 2 | i | 0.86 | -110 | 116
ClCc1nnc(-c2cc3c(s2)CCCC3)o1 | . | 103 | 4 | i | 0.98 | -27 | 96
C=CCN(CC=C)C(=S)NCCc1ccc(OC)c(OC)c1 | 0.1 | 103 | -4 | i | 1.4 | . | .
Cc1cc(=O)oc2cc(OCC(=O)OCC(=O)NC3CC3)ccc12 | . | 103 | -4 | i | 0.94 | . | .

(continued)
SMILES | GALR2 ag | RGS16-Gao | PKD1 kinase inh | HSV augment | HSV augment primary fold | Insulin prom inh | Insulin prom inh cell count
O=C(Oc1c(Cl)cc(Cl)c2cccnc12)c1ccco1 | -0.3 | 98 | 2 | i | 0.83 | 68* | 71*
CCCNS(=O)(=O)c1ccc(NC(=O)c2cccnc2)cc1 | -2.7 | 98 | -5 | i | 1.1 | . | .
CCCCc1nc2ccccc2n1Cc1nnc2n1-c1ccccc1SC2 | -0.2 | 93 | 5 | i | 0.76 | . | .
CCN1/C(=C/c2sc(-c3ccccc3C)c[n+]2C)Sc2ccccc21 | . | 99 | 0 | i | 0.76 | -285 | 44
Nc1nnc(Cc2ccc(Cl)c(Cl)c2)s1 | -0.8 | 99 | -3 | i | 0.89 | -63 | 120
Cc1ccccc1NC(=O)N1CCN(C/C=C/c2ccccc2)CC1 | . | 85 | 3 | i | 1 | 58 | 94
COc1cccc(-c2nnc(SCC(=O)Nc3cc(C)on3)o2)c1 | -1.6 | 105 | -3 | i | 0.94 | 67 | 109
Cc1ccc(S(=O)(=O)NCC(=O)N/N=C/c2ccccc2O)cc1 | . | 111 | 3 | i | 0.87 | . | .
O=c1cc(-c2ccccc2Cl)oc2c(NS(=O)(=O)c3cc(Cl)cc(Cl)c3O)ccc(O)c12 | -0.9 | 104 | -1 | i | 0.99 | -23 | 67
CCN(c1ccccc1)S(=O)(=O)c1cc([N+](=O)[O-])ccc1N | . | 106 | -5 | i | 0.95 | 28 | 112
CC(C)OC(=O)c1c(NC(=O)c2cccs2)sc2c1CCCC2 | 0.4 | 92 | -2 | i | 0.96 | . | .
CCSc1nc2ccccc2n1Cc1cccc([N+](=O)[O-])c1 | -0.9 | 106 | -16 | i | 1 | 53 | 81
COCc1ccc(C(=O)N2CCCC(C(=O)c3cc(F)ccc3F)C2)s1 (configuration not stated) | . | 95 | 0 | . | . | . | .
COCCCn1c(-c2ccc(S(=O)(=O)N3CCOCC3)cc2)csc1=Nc1ccccc1 | 0.0 | 93 | -2 | . | . | -6 | 96
CCc1c(C)sc(NC(=O)c2ccc(Br)o2)c1C(=O)OC | 1.9 | 100 | -11 | i | 0.85 | -11 | 76
N#CCCN/N=C(/Cc1nc2ccccc2[nH]1)c1cccc(Cl)c1 | -2.9 | 224*[activator] | 0 | i | 1.1 | 22 | 93
Cc1ccccc1-c1cc(=O)c2c(O)cccc2o1 | . | 100 | . | i | 0.89 | . | .
COc1ccccc1N1CCN(C(C)C(=O)Nc2ccc(S(=O)(=O)N3CCOCC3)cc2)CC1 (configuration not stated) | . | 103 | 0 | i | 0.96 | -45 | 116
COc1ccc(NS(=O)(=O)c2ccc(OC)c(NC(=O)CCC3CCCC3)c2)cc1 | -1.7 | 105 | 9 | i | 1 | . | .
CCOc1cccc2c1OC1(C)CC2NC(=O)N1c1cccc(F)c1 (configuration not stated) | -1.3 | 104 | -25 | i | 0.99 | -36 | 79
N#C/C(=C\c1ccccc1[N+](=O)[O-])C(=O)Nc1ccc(S(N)(=O)=O)cc1 | . | 102 | . | i | 0.91 | . | .
CCN(CC)C(=O)Cn1cc(S(=O)(=O)CC(=O)N2CCCCCC2)c2ccccc21 | . | 100 | -1 | i | 0.98 | -11 | 92
O=C(CSc1nnc(-c2cccnc2)n1CCc1ccccc1)NCc1ccccc1 | -1.6 | 108 | -10 | i | 1 | -105 | 119
COc1ccc(C(=O)N/N=C/c2c(CO)cnc(C)c2O)cc1 | . | 95 | -4 | i | 0.88 | . | .
CCc1cc2c(=O)c(-c3cnn(-c4ccccc4)c3)c(C(F)(F)F)oc2c(CN(C)C)c1O | -1.3 | 104 | -3 | i | 0.74 | -193 | 120

One compound at a time, from the list above. Order of screens: GALR2 ag	RGS16-Gao	PKD1 kinase inh	HSV augment	HSV augment primary fold	Insulin prom inh	Insulin prom inh cell count
O=C(CSc1nnc(-c2cccnc2)n1CCc1ccccc1)NCc1ccccc1 as listed: -1.6	108	-10	i	1	-105	119
COc1ccccc1N1CCN(C(C)C(=O)Nc2ccc(S(=O)(=O)N3CCOCC3)cc2)CC1 (configuration not stated) as listed: .	103	0	i	0.96	-45	116
CCCNS(=O)(=O)c1ccc(NC(=O)c2cccnc2)cc1 as listed: -2.7	98	-5	i	1.1	.	.
COc1cccc(-c2nnc(SCC(=O)Nc3cc(C)on3)o2)c1 as listed: -1.6	105	-3	i	0.94	67	109

Next section:
SMILES | GALR2 ag | RGS16-Gao | PKD1 kinase inh | HSV augment | HSV augment primary fold | Insulin prom inh | Insulin prom inh cell count
O=[N+]([O-])c1ccc(-c2nc(=S)c3c(o2)CCCC3)cc1 | -1.2 | 101 | 7 | i | 0.95 | -39 | 98
CCn1nnc(NC(=O)COc2ccc([N+](=O)[O-])cc2)n1 | . | 89 | . | i | 1 | . | .
CCCCN(C(=O)CN1C(=O)C2CC=CCC2C1=O)c1c(N)n(CCC)c(=O)[nH]c1=O (configuration not stated) | -3.2 | 110 | 6 | i | 1 | . | .
Cc1cc(C)n2nc(SCC(=O)c3ccc[nH]3)nc2n1 | -1.1 | 122 | 4 | i | 0.86 | -39 | 94
Cc1cccc(C(=O)Oc2ccc(/C=N/O)cc2)c1 | -0.9 | 104 | -9 | i | 0.9 | -412 | 76
COc1ccc(-c2nn(-c3ccccc3)cc2/C=N/Nc2ccc3ccccc3n2)cc1OC | 1.1 | 86 | 4 | i | 0.8 | -11 | 135
COc1ccc(CCNC(=O)COc2ccc(S(=O)(=O)N3CCOCC3)cc2)cc1OC | -0.6 | 98 | 2 | i | 0.94 | . | .
COC(=O)CCC(=O)Nc1cc(Cl)cc(Cl)c1 | . | 124 | -4 | i | 0.98 | -29 | 87
Cn1nnnc1SCc1ccc(C(=O)Nc2nccs2)cc1 | -2.1 | 97 | -3 | i | 1 | . | .
Cc1cccc(Cn2cc(/C=C/[N+](=O)[O-])c3ccccc32)c1 | -0.3 | 101 | -5 | i | 1.1 | 25 | 176
Cc1ccc(S(=O)(=O)NC(C(=O)OCC(=O)NC(=O)c2cccn2C)C(C)C)cc1 (configuration not stated) | -0.4 | 101 | -11 | i | 0.94 | . | .
FC(F)(F)c1cnc(NNC(=S)Nc2ccc(Cl)cc2)c(Cl)c1 | -1.7 | 102 | 6 | i | 0.91 | 23 | 119
O=S(=O)(N/N=C/c1ccc2c(c1)OCCO2)c1ccccc1 | -2.2 | 95 | -9 | i | 0.97 | -8 | 80
CCOC(Cn1c(CCCO)nc2ccccc21)OCC | -4.4 | 117 | -3 | i | 0.85 | 12 | 212
O=C1CC(c2cccc(F)c2)c2c(c3ccccc3[nH]c2=O)O1 (configuration not stated) | . | 103 | -4 | i | 0.81 | -18 | 92
CN(C(=O)COC(=O)C1CCN(S(=O)(=O)c2cccs2)CC1)c1ccccc1 | . | 102 | -3 | i | 0.98 | . | .
O=C(CN1CCN(c2ccc(F)cc2)CC1)N1N=CCC1c1ccccc1 (configuration not stated) | -1.4 | 103 | 6 | i | 0.89 | . | .
CN(Cc1cnn(C)c1)Cc1nc(C(c2ccccc2)c2ccccc2)no1 | . | 98 | -6 | i | 1.1 | . | .
CN(C)C(=O)c1ccccc1Sc1cc(Cl)ccc1Cl | -1.1 | 98 | 0 | i | 0.83 | . | .
OC(CNCc1ccccc1Cl)C(F)(F)F (configuration not stated) | . | 96 | -1 | i | 1 | 20 | 128
O=S1(=O)CCN(Cc2csc(-c3cccs3)n2)CC1 | . | 108 | . | i | 0.96 | . | .
O=c1c([N+](=O)[O-])c(N2CCCCCC2)c2ccccc2n1-c1ccccc1 | -0.3 | 92 | -18 | i | 0.96 | . | .
CC(C)CC1NC(=O)N(CC(=O)c2ccc3c(c2)OCCO3)C1=O (configuration not stated) | -1.3 | 96 | -7 | i | 0.85 | -17 | 82

5 structures from above, sorted by SMILES length, largest number first.
SMILES | GALR2 ag | RGS16-Gao | PKD1 kinase inh | HSV augment | HSV augment primary fold | Insulin prom inh | Insulin prom inh cell count
CN(C(=O)COC(=O)C1CCN(S(=O)(=O)c2cccs2)CC1)c1ccccc1 | . | 102 | -3 | i | 0.98 | . | .
O=S1(=O)CCN(Cc2csc(-c3cccs3)n2)CC1 | . | 108 | . | i | 0.96 | . | .
Cn1nnnc1SCc1ccc(C(=O)Nc2nccs2)cc1 | -2.1 | 97 | -3 | i | 1 | . | .
COC(=O)CCC(=O)Nc1cc(Cl)cc(Cl)c1 | . | 124 | -4 | i | 0.98 | -29 | 87
CCOC(Cn1c(CCCO)nc2ccccc21)OCC | -4.4 | 117 | -3 | i | 0.85 | 12 | 212

The order is random; overall some 1.3% were active at least once.
